From PubChem BioAssay
UUG fidelity: yeast start codon fidelity modulation | activity score, % at 18.7 µM | S. cerevisiae UUG-firefly luciferase reporter, luminescence/redox ratio | AID 602363 | 0.13% of 350,000 active;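 active means replicate mean at a twofold rise or more, about +100% in these data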;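 further: firefly luciferase made from a UUG start codon reports start codon fidelity; reporter light over untreated wells divided by growth signal over untreated wells; some hits fall short of that in this replicate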
PABP polyA inh: blocks human PABP binding to poly(A) RNA | 1% of 290,000 active | inhibition, % at 35 µM | P11940 | AID 2014 | fluorescence polarization;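 active means 50% or more with normal probe brightness, or confirmed in later tests; about a fifth of its hits are not listed in these tables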;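 further: calls also rest on retests at 20 µM and on dose response follow-up; controls were probe without protein and protein plus probe with vehicle; some compounds called inactive have numbers as strong as hits; many hits fall short of the cut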
eIF4H inh: inhibitors of RNA binding by human eIF4H; AID 2012; eIF4H fluorescence polarization binding assay; Q15056; inhibition, % at 35 µM; 0.94% of 290,000 active;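 active means 50% or more with normal probe brightness, or confirmed in later tests; about a fifth of its hits are not listed in these tables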;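 further: calls also rest on retests at 20 µM and on dose response follow-up; 0% = protein and probe with vehicle and 100% = probe without protein; strong numbers were not always called active; many hits fall short of the cut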
CSC inhib: blocks cancer stem cells. cancer stem cell-like cells viability, luminescence. inhibition, % at 7.5 µM. 1.1% of 300,000 active;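 active means mean at 75% or more and at least half the replicates too; tested in HMLE shEcad cells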;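 further: 0% = median of negative and 100% = median of positive control wells; the first replicate is given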
Rce1 inhib: yeast Ras-converting enzyme inhibition; yeast membranes, quenched prenylated peptide cleavage fluorescence; calls only; 0.27% of 290,000 active; AID 2563;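 active means fall in fluorescence gain of 50% or more versus controls, with final raw signal at or below 3038400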;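 further: plate controls were neutral control wells for no effect and wells lacking membranes for full effect; tested at 10 µM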
Target sequence (Q03530 whole entry, looked up): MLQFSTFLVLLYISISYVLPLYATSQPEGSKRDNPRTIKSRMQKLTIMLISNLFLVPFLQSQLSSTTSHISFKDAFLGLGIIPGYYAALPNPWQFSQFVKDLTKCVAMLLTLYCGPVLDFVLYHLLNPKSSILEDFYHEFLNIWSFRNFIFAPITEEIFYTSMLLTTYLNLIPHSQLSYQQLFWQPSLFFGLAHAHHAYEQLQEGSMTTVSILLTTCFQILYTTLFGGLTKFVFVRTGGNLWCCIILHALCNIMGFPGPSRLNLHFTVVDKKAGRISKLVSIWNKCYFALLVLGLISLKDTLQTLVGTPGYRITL
HIV Env fusion: blocks HIV Env-driven cell-cell fusion; AID 651610; inhibition, % at 12.3 µM; 1.1% of 360,000 active; HeLa-JRFL Env/CEM21 cell fusion, luciferase;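 active means mean replicate inhibition score of at least 50 and every replicate individually at or above 50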;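 further: 0% = plate neutral controls and 100% = maraviroc near 300 nM; one replicate is shown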
MT1-MMP act inh: blocks activation of human MT1-MMP | P50281 | HT1080 RFP-PRO-GFP cells, GFP/RFP ratio fluorescence, overnight; percent of plate control window, DMSO zero | GFP/RFP ratio change, % at 20 µM | 0.061% of 360,000 active | AID 651647;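 active means GFP/RFP ratio change of at least 30% with cell ATP level not reduced by more than half and red fluorescence within 50% of control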; further: strong numbers were not always called active
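Compound: 20 µM single dose, 1% DMSO / System: HT1080 RFP-PRO-GFP cells / Controls: DMSO and RFP-L50D-GFP cell wells / Read-out basis: GFP/RFP fluorescence ratio / Schedule: overnight compound exposure at 37 °C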
MT1-MMP act inh RFP: further read-out of MT1-MMP act inh, marked with its call; RFP signal change, %; measured here: RFP expression control read;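 0 = vehicle wells; hits needed this value within 50% of zero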
The depositor's hits bear a star; i = inactive; x = no result given; & = joins results of further samples; [ ] = dose if it differs, or a comment.

SMILES	UUG fidelity	PABP polyA inh	eIF4H inh	CSC inhib	Rce1 inhib	HIV Env fusion	MT1-MMP act inh	MT1-MMP act inh RFP
O=C(NCc1ccco1)C1CCCCN1S(=O)(=O)c1ccc(F)cc1 (stereo unspecified)	-17	-4	3	-24	i	-1	-1	0
COc1ccc(C)c(-n2c(N)cc(=O)n(Cc3ccccc3)c2=O)c1	x	13	-2	-1	i	14	-1	5
COc1cc(C(=O)Nc2nc(OC)c(-c3ccccc3)c(OC)n2)cc(OC)c1OC	-24	-8	-6	2	i	x	-7	-5
CC1CCC2(CC1)NC(=O)N(CC(=O)NC1CCCCC1C)C2=O (stereo unspecified)	-27	x	x	x	x	-8	-1	5
C=CCn1c(SCC(=O)Nc2cc(C)on2)nc2sc(C)c(C)c2c1=O	5	-9	-3	-8	i	-29	-3	-10
O=C(COC(=O)C12CC3CC(CC(O)(C3)C1)C2)Nc1ccc(Cl)cc1F	-10	x	x	-3	x	x	3	4
C[C@@H](O)C1NC(=O)[C@H](CCCCN)NC(=O)c2cc([N+](=O)[O-])cc(I)c2NCCC[C@@H](C(N)=O)NC1=O (stereo partly specified)	5	-4	-10	-7	i	0	0	1
Cc1ccc(C(=O)/C=C/Nc2ccccc2C(N)=O)o1	-10	16	10	1	i	x	-20	7
Cc1cc2c(c(Sc3ccccc3)n1)C(=O)OC2	-13	10	-6	1	i	-37	3	7
NC(=O)c1c(NC(=O)c2ccccc2F)sc2c1CCCC2	-3	12	-7	-9	i	-114	4	-5
CC1(C(=O)Nc2ccc3[nH]ncc3c2)CCN1C(=O)CCc1ccccc1 (stereo unspecified)	-29	x	x	x	x	-6	-1	-2
O=C(O)C1(Cc2nc3ccccc3[nH]2)CCCC1	-12	8	-1	-17	i	2	-1	2
COc1cc2c(cc1NC(=O)c1ccccc1F)CCCC2	x	2	-4	-4	i	-29	4	2
COC(=O)c1sc(S(=O)(=O)N2CCC(C(N)=O)CC2)c(C(=O)OC)c1C	11	3	-17	7	i	-30	-3	5
O=C(NCc1ccco1)c1c[nH]c2ccc(S(=O)(=O)N3CCOCC3)cc2c1=O	-12	-2	-5	x	x	x	6	6
Cc1ccc(NC(=O)COC(=O)c2ccc(CN3CCCC3=O)cc2)c(Cl)c1	-6	x	x	-19	x	x	-3	1
CCS(=O)(=O)c1nc(S(=O)(=O)c2ccc(C)cc2)c(N2CCN(C)CC2)s1	14	15	-9	-1	i	-1	-4	0
CS(=O)(=O)N1CCN(c2ccc([N+](=O)[O-])c(N3CCOCC3)c2)CC1	-20	2	-7	-9	i	x	5	2
CSc1nnc(NC(=O)CCc2ccccc2)s1	-24	24	1	-8	i	-85	-5	3
CCOC(=O)CSc1ccc2nnc(CCNS(=O)(=O)c3ccccc3)n2n1	x	10	-10	-5	i	18	-3	4

Grouped by structure: the entries above with an aryl methoxy group.
SMILES	UUG fidelity	PABP polyA inh	eIF4H inh	CSC inhib	Rce1 inhib	HIV Env fusion	MT1-MMP act inh	MT1-MMP act inh RFP
COc1ccc(C)c(-n2c(N)cc(=O)n(Cc3ccccc3)c2=O)c1	x	13	-2	-1	i	14	-1	5
COc1cc(C(=O)Nc2nc(OC)c(-c3ccccc3)c(OC)n2)cc(OC)c1OC	-24	-8	-6	2	i	x	-7	-5
COc1cc2c(cc1NC(=O)c1ccccc1F)CCCC2	x	2	-4	-4	i	-29	4	2

Carrying on:
SMILES	UUG fidelity	PABP polyA inh	eIF4H inh	CSC inhib	Rce1 inhib	HIV Env fusion	MT1-MMP act inh	MT1-MMP act inh RFP
COc1ccc(OCC(O)Cn2c(Nc3ccccc3)nc3c2c(=O)n(C)c(=O)n3C)cc1 (stereo unspecified)	-6	3	-6	x	i	x	10	5
COc1ccc2oc3cc(NCCN(C)C)ccc3c(=O)c2c1	-31	x	x	x	x	-222	5	4
COc1ccccc1NC(=O)c1ccccc1N(Cc1ccccc1)S(C)(=O)=O	-4	2	-13	-8	i	20	1	3
O=C(Nc1csc([N+](=O)[O-])c1)Nc1c(Cl)cccc1Cl	-3	0	-9	14	i	18	x	x
CCOC(=O)c1ccc(NC(=O)N2CCCCCC2)cc1	-11	1	7	10	i	-55	-1	1
CS(=O)(=O)N(Cc1ccc(Cl)cc1)c1ccc(C(=O)N/N=C/c2cc3ccccc3nc2Cl)cc1	-13	-7	-1	20	i	x	-1	-10
O=C(NC1CCCC1)C(c1ccc(O)cc1)N(CC1CCCO1)C(=O)C1COc2ccccc2O1 (stereo unspecified)	-21	4	-2	-9	i	x	-1	-3
COc1ccc(C=O)c2[nH]c3c(Cl)ncnc3c12	5	9	1	x	i	-3	5	1
COc1ccc([N+](=O)[O-])cc1NC(=O)C(C)Sc1ccccc1 (stereo unspecified)	x	-1	-7	-14	i	18	-2	-2
CCC(=O)N(CC)c1nc(-c2ccc(OC)cc2)cs1	-6	8	1	x	i	-65	-6	-4
COc1ccc(/C(O)=C2/C(=O)C(=O)N(CCN(C)C)C2c2ccccc2)cc1Cl (stereo unspecified)	-14	5	-5	-1	i	x	1	5
Cc1ccc2oc(=O)n(CCOc3ccccc3Cl)c2c1	-10	0	1	8	i	-13	-2	-2
O=C(c1ccccc1)c1ccc2c(c1)OCCOCCOCCOCCO2	x	4	-11	-20	i	14	-1	2
Cc1ccc(S(=O)(=O)Nc2cc(C)on2)cc1	-12	10	-2	-6	x	12	-2	-1
CNC(=O)c1ccc(S(=O)(=O)c2ccc(Cl)cc2)c(NC(C)=O)c1	-12	10	-2	x	i	2	4	6
Cc1ccc(NC2CCCN(C(=O)CCc3ccncc3)C2)cc1C (stereo unspecified)	-1	-12	-2	4	i	3	-2	2
CC(=O)c1ccc(NC(=O)CC(C)S(=O)(=O)c2ccc3c(c2)CCN3C(C)=O)cc1 (stereo unspecified)	2	-5	10	-8	i	-3	0	3
NNc1ccc(Cc2ccc(Cl)cc2Cl)nn1	x	-2	-8	3	i	-2	7	-4
C#Cc1ccc([C@H]2C=C(C(=O)NCc3ccccc3)O[C@@H](OCC)[C@@H]2CCCO)cc1	-1&-10	-8	-1	5	i	28[16.7 µM]	3	-6
CCC(=O)NC(=S)Nc1ccc(NC(=O)c2ccc(Br)o2)cc1	x	-4	7	-2	i	-9	3	0
CCOC(=O)c1nc(C)sc1-c1ccnn1S(=O)(=O)c1ccccc1C(F)(F)F	3	-3	4	4	i	-6	-1	-1
COc1ccc(CN(C)C(C)C(=O)Nc2ccc([N+](=O)[O-])cc2Cl)cc1OC (stereo unspecified)	x	1	2	15	i	10	-1	-6
COCCNC(=O)c1ccc(N2CCCCC2)c(NS(=O)(=O)c2ccc(C)cc2)c1	-4	-5	2	-12	x	x	-4	-5
COc1ccc(S(=O)(=O)N2CCCC2C(=O)Nn2cnnc2)cc1 (stereo unspecified)	-3	4	2	-13	i	-7	-2	6
N=c1sccn1CC(=O)Nc1cc(S(=O)(=O)N2CCCCC2)ccc1Cl	x	6	-3	-3	x	8	8	0
N#Cc1c(Nc2ccccc2)c(/C=N/N=C/c2ccccc2)c[nH]c1=O	-3	2	-4	-6	i	14	5	4
COc1ccc(OCCCc2c(C)n[nH]c2C)cc1	-40	32	18	3	i	x	6	-9
Cc1cccc(C(=O)O/N=C(\N)Cc2ccc([N+](=O)[O-])cc2)c1	x	-11	7	-15	i	x	3	-2
Cc1ccc(-c2cc(C#N)c(=O)n(Cc3c(Cl)cccc3Cl)c2)cc1	-14	1	8	-3	i	18	3	-1
N#CC(Cc1ccccc1OC(F)F)c1nc2ccccc2[nH]1 (stereo unspecified)	x	-8	-8	2	i	x	6	1
COc1cc(/C=C(\C#N)c2nc3ccccc3[nH]2)cc(Br)c1OCc1ccccc1	-14	11	17	7	i	x	-18	-10
Nc1c(Cl)ncnc1NCCc1ccc(O)cc1	x	6	3	3	i	19	-4	-30
O=C(NC1CCN(Cc2ccccc2)CC1)C1CCN(S(=O)(=O)c2cccc3nsnc23)CC1	-7	10	-10	1	i	x	5	-3
COC(=O)Cc1c(C)nc2nc(NCc3c(F)cccc3Cl)[nH]n2c1=O	-9	0	-7	17	i	x	1	6
COc1ccc(S(=O)(=O)Nc2cccc3c2O[C@H](CN(C)S(=O)(=O)c2cn(C)cn2)[C@@H](C)CN([C@H](C)CO)C3=O)cc1	-4&-9	x	x	x	x	1	4	3
COc1ccc(-c2cc(=O)n(-c3ccc([N+](=O)[O-])cc3)[nH]2)cc1	x	-10	3	126*	i	x	-1	-5
CC(=O)O[C@]1(C(C)=O)CCC2C3CCC4=C/C(=N/OCC(=O)O)CC[C@]4(C)C3CC[C@@]21C (stereo partly specified)	-7	-3	6	3	i	-33	-1	3
Cn1c(=O)c2c(SCC(=O)NCCc3ccccc3)nc(C3CC3)nc2n(C)c1=O	x	0	5	-22	i	x	x	x
COC(=O)c1ccccc1NC(=O)CN1CCC(C(=O)c2ccc3c(c2)OCCO3)CC1	x	-2	8	1	i	x	-3	-10
C=CC(=C)CC(NC)c1ccccc1 (stereo unspecified)	-26	-1	6	-1	i	x	2	2

The final 2 records of the section before open the next one.
SMILES	UUG fidelity	PABP polyA inh	eIF4H inh	CSC inhib	Rce1 inhib	HIV Env fusion	MT1-MMP act inh	MT1-MMP act inh RFP
COC(=O)c1ccccc1NC(=O)CN1CCC(C(=O)c2ccc3c(c2)OCCO3)CC1	x	-2	8	1	i	x	-3	-10
C=CC(=C)CC(NC)c1ccccc1 (stereo unspecified)	-26	-1	6	-1	i	x	2	2
CCOC(=O)c1nc(S(C)(=O)=O)ncc1N1CCOCC1	-10	0	-7	x	i	x	-8	5
COc1ccc2ccccc2c1C1NC(=O)NC(C)=C1[N+](=O)[O-] (stereo unspecified)	-2	-13	-11	-17	i	2	-5	-6
C=CCN(C(=O)CNC(=O)c1ccco1)C(C(=O)NC1CCCC1)c1cccs1 (stereo unspecified)	x	-5	-14	-11	i	-6	-3	-1
C=CCN(C/C(=N\O)c1sc(C(=O)OCC)nc1C)c1cccc(Br)c1	-10	x	x	3	i	34	1	0
Cc1ccc(-n2c(CC#N)n[nH]c2=S)c(C)c1	-19	-4	10	9	i	5	5	2
Cc1nnsc1SCC(=O)O	-21	-9	-4	3	x	-21	2	0
C=CCN1CCN(C(=O)CCc2ccccc2)CC1	-5	2	1	-7	i	9	-5	2
CCOC(=O)c1c(S(=O)(=O)NCC(=O)NCc2cccc(C)c2)c(C)n(C)c1C	-5	-2	0	-14	i	0	0	0
COC(=O)c1sc2ncccc2c1OCc1ccccc1Cl	-5	1	5	-9	i	-77	6	1
O=C(c1ccco1)N(Cc1ccccc1)c1cccc([N+](=O)[O-])c1	x	-5	0	x	i	-8	-2	2
CCCc1nc2ccccc2c(=O)n1CC(=O)c1ccc(F)cc1	x	-1	1	1	i	2	3	2
CN(CCC#N)C(=O)COC(=O)c1c2c(nc3ccccc13)/C(=C\c1ccco1)CC2	-8	x	x	x	x	-2	0	5
CN(C)CCCOc1cccc(Oc2ccccc2)c1	x	13	0	27	i	-18	-4	-1
CCOc1ccc(Cl)cc1-c1cc(C(=O)Nc2ccc(OC)nc2)[nH]n1	6	x	x	x	x	8	0	-4
CC(C)C(NC(=O)c1ccco1)C(=O)OCC(=O)NCCc1ccccc1 (stereo unspecified)	4	x	x	x	x	1	1	8
Cc1ccc(CNC(=O)C(=O)NCC2CCCN2S(=O)(=O)c2cc(C)ccc2C)cc1 (stereo unspecified)	-10	x	x	-2	i	x	1	-8
CCN1CCc2c(C#N)c(N3CCOCC3)nc(NCCO)c2C1	-12	48	41	25	i	-65	-12	1
O=C(COC(=O)c1ccc(=O)n(Cc2ccccc2)n1)Nc1ccc2c(c1)OCCO2	-12	-15	-7	9	i	-270	0	3
COc1ccc(NC(=O)CSc2nccn2-c2cccc(OC)c2)cc1	-21	-10	-6	-3	i	x	5	-1
Nc1n[nH]c(N)c1N=Nc1ccc(Cl)cc1Cl	x	-8	0	49	i	-37	0	-14
FC(F)(F)c1ccccc1/C=N/n1c(COc2ccccc2)n[nH]c1=S	-14	-2	1	-6	i	11	0	2
Cc1cccc2sc(NNC(=O)c3cc(-c4cccs4)nc4ccccc34)nc12	-8	9	26	103*	i	85*	-7	-22
